From PubChem
H5N1 CPE – antiviral screen in MDCK cells, H5N1 avian flu. inhibition, % at 50 µM. 96,000 compounds, 0.07% hits. cytopathic effect, luminescence, 72 h; active compounds read high; no value below 0 was filed and about half of the inactive calls have no number; reference of the scale not given here; in the data active means inhibition above about 25%
* marks the source's active call; other numbers are inactive results; i = inactive. An excerpt, so the mix of outcomes need not match the whole.

SMILES	H5N1 CPE
O=C(OCc1cccc2ccccc12)C1CC(=O)N(c2ccccc2)C1 (stereo unspecified)	0.1
COc1cccc(C2NC(c3cccc(OC)c3O)C(C)C(=O)C2C)c1O (stereo unspecified)	0.2
Cc1c(C(=O)N2CCC3(CC2)OCCO3)sc2ncnc(N(C)c3ccccc3)c12	4.3
COC(=O)c1ccc(COn2c(=O)c(C)[n+]([O-])c3ccccc32)cc1	0.5
O=C(CCNc1ccc(F)c(Cl)c1)c1ccco1	4.8
Cc1cccnc1NC(=O)Nc1cccs1	16
CCN1CCCC1CN(Cc1cc2cc(C)ccc2[nH]c1=O)C(=O)Nc1ccccc1OC (stereo unspecified)	i
Cn1c(=O)n(C)c2cc(S(=O)(=O)N3CCOCC3)ccc21	0.2
CCOC(=O)c1c(C)c2c(n1C)CCC/C2=N\O	i
O=C(c1ccco1)N1CCN(C(=O)C2CC(c3ccc(Cl)cc3)=NO2)CC1 (stereo unspecified)	i
c1ccc(Cn2c(Nn3cnnc3)nc3ccccc32)cc1	i
N#CC(C(=O)OC1CCCCC1)c1nc2ccccc2nc1N1CCOCC1 (stereo unspecified)	i
CCCCc1ccc(-c2ccc(Br)cc2O)nc1	i
N#Cc1nc(-c2ccc(F)cc2)oc1NCc1cccc2c1OCO2	0.3
O=C(C1CCC(C(=O)N2CCCCC2)CC1)N1CCCCC1 (stereo unspecified)	1.1

More records follow:
SMILES	H5N1 CPE
O=C(Nc1ccccc1)c1cccc(N2CCCC2=O)c1	0.4
COc1cc(Nc2cc(C)nc3ncnn23)cc(OC)c1	i
COc1cccc(OC)c1C(=O)N1CCOCC1	i
C=CCNC(=O)C1CC(=O)N(c2ccc(OCC(=O)NCc3ccccc3)cc2)C1 (stereo unspecified)	0.4
COc1ccc(Cl)cc1N(C)C(=O)CCc1nc(-c2ccc(C)cc2)no1	0.2
CC(C)(C)c1ccc(-c2nnc3sc(-c4ccncc4)nn23)cc1	1.9
Cc1noc(C)c1S(=O)(=O)N1CCCC(C(=O)Nc2cccnc2)C1 (stereo unspecified)	i
COc1ccc(-c2noc(CN(C(=O)c3ccc(OC(C)=O)cc3)C(C)C)n2)cc1OC	2.6
Cc1cccc(NC(=O)C2CCN(S(=O)(=O)c3cccc4cccnc34)CC2)c1	0.1
Cc1nn(-c2cccc(C(=O)O)c2)c(C)c1Oc1ccccc1O	1.5
COc1ccc(CCN(C)Cc2ccc(OC)c(OCc3ccccc3)c2)cc1OC	i
CC(C)OCCCNc1nc2c(c(=O)n(Cc3ccccc3F)c(=O)n2C)n1C	i
Cc1ccc(NC(=O)CC(C)N2CCCC2)cc1 (stereo unspecified)	0.6
Cc1cc(C(=O)COC(=O)C2=COCCO2)c(C)n1-c1ccc2c(c1)OCO2	i
Cc1oc(-c2ccccc2F)nc1CS(=O)CC(=O)NCc1ccc2c(c1)OCO2 (stereo unspecified)	1.8

The list continues.
SMILES	H5N1 CPE
O=C1c2cccnc2C(=O)N1c1ccccc1-c1ccccc1	i
COC(=O)c1cc(OC)c(OC)cc1NC(=O)CC1CCCCC1	2.2
Cc1cccc(NS(=O)(=O)c2cccs2)c1	0.2
N#Cc1c(-c2cccnc2)c2c([nH]c1=S)CCCC2	1.1
O=c1[nH][nH]c(-c2ccccc2)c1C=Nc1ccccc1Cl	0.8
CCc1nnc(NC(=O)c2cc(S(=O)(=O)N(CC)CC)ccc2Cl)s1	0.2
CCOc1c2ccc(C(=O)N[C@H](C)C3CCCCC3)cc2nn1CC	2.8
CSc1nccc(-c2nn(-c3ccc(C)cc3)ccc2=O)n1	i
CC1CC(Nc2ccccc2N)=CC(=O)O1 (stereo unspecified)	0.8
CCOc1ccccc1C1C(C#N)=C(N)Oc2cc(C)n(Cc3ccccn3)c(=O)c21 (stereo unspecified)	i
COC(=O)c1ccc(N2C(=O)CC(Sc3n[nH]c(C)n3)C2=O)cc1 (stereo unspecified)	i
CCc1c(C)nc2ncnn2c1N1CCCC(C(=O)NCc2ccco2)C1 (stereo unspecified)	3.1
COc1ccc(/C=N/NC(=O)c2ccccc2Cl)cc1CSc1nc2ccccc2s1	i
CCOC(=O)C1C(c2cc(OC)c(OC)c(OC)c2)NC(=S)NC1(O)C(F)(F)F (stereo unspecified)	0.1
Cc1[nH]nc(-c2ccc(OCc3cnn(-c4ccccc4)c3)cc2O)c1Oc1ccc(F)cc1	0.2

The list goes on:
SMILES	H5N1 CPE
Nc1ccccc1NC1=CC(=O)CC(c2ccco2)C1 (stereo unspecified)	0.6
CN1CCc2c(c3c(n2C)CCN(C)[C@H]3c2ccccc2F)[C@@H]1c1ccccc1F	i
CC(C)C1C(c2ccccc2)N(C)C(c2ccccc2)CC1(O)c1ccccc1 (stereo unspecified)	i
CC(=O)N1CC(=O)N(OCc2ccccc2)C1c1ccc(Cl)cc1Cl (stereo unspecified)	0.3
CCCCCn1c(=O)[nH]c2cc(C(=O)O)ccc2c1=O	0.3
O=c1[nH]c2cc(Cl)cc(Cl)c2[nH]c1=O	i
O=C(O)CCn1c(SCc2ccccc2)nc2ccccc21	0.3
CCNc1nc(NCC)n2c(SCC(=O)O)nnc2n1	0.2
CCCOc1ccccc1Cn1c(=O)oc2ccc(C)cc21	1.6
CC(C)CCNC(=O)CN(CC1CCCO1)C(=O)CCC(=O)Nc1nccs1 (stereo unspecified)	i
Cn1c(NC(=O)c2cc(-c3ccc4c(c3)OCO4)nc3ccccc23)cc(=O)n(C)c1=O	i
O=C(CSc1nc(O)c(C2CCCCC2)c(=O)[nH]1)Nc1ccc(Cl)cc1	i
O=C(Nc1ccc2c(c1)OCCO2)C1CCCN(S(=O)(=O)c2cccnc2)C1 (stereo unspecified)	1.9
COc1ccc(O)c(-c2cn[nH]c2-c2cccs2)c1	0.2
Cc1cc(C)nc(SCC(=O)N2CCOCC2)n1	i

Following part
SMILES	H5N1 CPE
COc1ccc2nc(SCC(=O)c3ccco3)[nH]c2c1	i
O=C1C(C=NCCCN2CCOCC2)=C(O)c2ccccc21	i
O=C(CSc1nnc(SCc2ccc(Cl)cc2)s1)N1CCN(C(=O)c2ccco2)CC1	0.1
CC1C(O)=C(c2nc3ccccc3[nH]2)C(=N)N1c1ccccc1 (stereo unspecified)	i
Cc1cc(C(=O)OCC(=O)N(C)C2CCS(=O)(=O)C2)c(C)n1-c1ccccc1 (stereo unspecified)	1.2
CCN(CC)S(=O)(=O)c1ccc2c(c1)nc(SCn1nnc3ccccc3c1=O)n2CC	0.8
COc1ccc(CC(=O)OCC(=O)Nc2ccc(Cl)cn2)cc1	0.0
Cc1ccc(-c2cc(C(=O)Nc3nn[nH]n3)c3ccccc3n2)c(C)c1	i
COc1ccc(OC)c(S(=O)(=O)NCc2cccnc2)c1	i
Cc1ccc(C(=O)Nc2ccc3c(c2)CCC3)o1	i
COc1cccc(-c2cc(C(=O)N3CCN(C(c4ccccc4)c4ccccc4)CC3)no2)c1	0.1
CCOC(=O)CSC1=C(C#N)C(c2ccc(Cl)cc2)CC(=O)N1 (stereo unspecified)	1.5
COCC(C)NC(=O)c1cc(-c2ccccc2OC)on1 (stereo unspecified)	i
COc1ccccc1C(c1nnnn1CCc1ccccc1)N1CCCCCC1 (stereo unspecified)	1.9
COc1ccc(-c2nc(N3CCC(C)CC3)[nH]c(=O)c2C#N)cc1	0.8

The list goes on, starting with the last 6 of the part before.
SMILES	H5N1 CPE
Cc1ccc(C(=O)Nc2ccc3c(c2)CCC3)o1	i
COc1cccc(-c2cc(C(=O)N3CCN(C(c4ccccc4)c4ccccc4)CC3)no2)c1	0.1
CCOC(=O)CSC1=C(C#N)C(c2ccc(Cl)cc2)CC(=O)N1 (stereo unspecified)	1.5
COCC(C)NC(=O)c1cc(-c2ccccc2OC)on1 (stereo unspecified)	i
COc1ccccc1C(c1nnnn1CCc1ccccc1)N1CCCCCC1 (stereo unspecified)	1.9
COc1ccc(-c2nc(N3CCC(C)CC3)[nH]c(=O)c2C#N)cc1	0.8
N#Cc1ccccc1NCc1ccccc1	0.1
CSc1ncc(Cl)c(C(=O)Nc2sc3c(c2C(=O)NCc2ccco2)CCCC3)n1	i
COc1cc(/C=N\NC(=O)c2ccc(=O)[nH]n2)cc(OC)c1OC	2.2
O=C(Cn1c(=O)[nH]c2ccsc2c1=O)NC1CCCCC1	0.5
Cc1c(C(=O)NCc2ccccc2)c(-c2ccccc2)nn1-c1ccccc1	0.2
Cc1ccc(NC(=O)Cn2c(=O)n(CCCCC(=O)NCc3ccco3)c(=O)c3ccccc32)cc1	i
COc1ccc(OC)c(NC(=O)CN2CCC(C(=O)c3ccc(C)cc3)CC2)c1	0.8
CCCN1CCN(C(=O)c2cccc3c2C(=O)N(CCOC)C3)CC1	i
Cc1nn(C)c(C)c1NC(=O)Nc1cccc(C(F)(F)F)c1	i
COc1ccc(OC)c(-c2cc(C(=O)Nc3cc(C)n(Cc4ccc(Cl)cc4)n3)no2)c1	i
COc1cccc(C(c2c(O)nc(SC)n(C)c2=O)c2c(O)nc(SC)n(C)c2=O)c1	i
CCC(C)NC(=O)CSc1nnc(-c2ccoc2C)n1CC1CCCO1 (stereo unspecified)	i
O=[N+]([O-])c1cc(C(F)(F)F)ccc1Sc1ccc2ccccc2n1	i
Cc1ccc2c(c1)NC(=O)C(CC(=O)NCc1cccnc1)O2 (stereo unspecified)	0.8
Cc1cc(C)c2nc(NC(=O)C3CCCO3)sc2c1 (stereo unspecified)	i

(cont.)
SMILES	H5N1 CPE
COc1c2ccoc2nc2c(OC)cccc12	1.5
Cc1nn(C)cc1C(=O)NNC(=S)Nc1ccc(Cl)cc1	i
Cn1c(SCc2nc(-c3ccccc3)no2)nnc1-c1ccco1	0.9
COc1ccc(-n2c(Cc3cccn3C)nnc2SCC(=O)NC2CCCC2)cc1	1.0
CCOC(=O)c1ccc(NC(=O)C(CC)CC)cc1	1.3
O=C(NCc1ccco1)C1CCN(c2nc3ccccc3n2Cc2ccccc2F)CC1	i
Cc1ccc(-c2nn(C(C)(C)C)c3ncnc(N)c23)cc1	3.6
CC(C)N(CCO)C(=O)C(c1ccccc1)c1ccccc1	1.9
CC(C)CNC(=O)NC(=O)COc1ncnc2sccc12	0.3
CCc1nc(SCC(=O)NNC(=O)C(C)C)c2ccccc2n1	i
O=C(CCCSc1nc2ccccc2s1)NC1=NCCS1	i
Cc1ccc(NC(=O)CN2C(=O)COc3ccc(C)cc32)nc1	0.4
COc1ccc(/C=C(/NC(C)=O)C(=O)O)cc1	i
Cc1[nH]nc2c1C1(C(=O)Nc3ccc([N+](=O)[O-])cc31)C(C#N)=C(N)O2 (stereo unspecified)	0.7
Cc1cc(C)c(C#N)c(=N)o1	i

Further structures follow.
SMILES	H5N1 CPE
Cc1cccc(CN2CCCC(C(=O)N3CCc4ccccc4C3)C2)c1 (stereo unspecified)	0.8
CCOC(=O)N1CCC(N2CCN(S(=O)(=O)c3ccc(C)cc3)CC2)CC1	2.0
N#Cc1c(NCCO)nc(NCc2ccccc2)c2c1CCN(Cc1ccccc1)C2	i
Brc1ccccc1CN1CCC(N2CCCCC2)CC1	i
Cc1ccc(-c2cc(C(=O)NCCCn3ccnc3)c3cc(Br)ccc3n2)o1	i
CC(=O)Nc1ccc(S(=O)(=O)NNC(=O)c2cc3c4ccccc4n(C)c3s2)cc1	0.4
Cc1cc(C)n2nc(C(=O)Nc3cccnc3)nc2n1	0.8
Cc1cnc(NC(=O)CSc2nnc(-c3cccs3)n2C)s1	4.2
Cc1cc(NC(=O)c2ccccc2NS(=O)(=O)c2c(C)c(C)cc(C)c2C)no1	i
CN1C(=S)SC(C)(C)C1/[N+]([O-])=C/c1cccnc1 (stereo unspecified)	i
CCOC(=O)N1CCN(C(=O)Cc2cccs2)CC1	0.2
Cn1c(=O)c2[nH]c(CN3CCN(Cc4ccccc4)CC3)nc2n(C)c1=O	i
CCOC(=O)Nc1oc2ccccc2c(=O)c1CN1CCOCC1	i
O=c1[nH]c(SCc2cccc(Cl)c2)nc2c1CCCC2	0.5
CC(=O)C1=C(C)OC(N)=C(C#N)C1c1ccco1 (stereo unspecified)	0.1

Structural class, the entries above containing a CF3 group
SMILES	H5N1 CPE
CCOC(=O)C1C(c2cc(OC)c(OC)c(OC)c2)NC(=S)NC1(O)C(F)(F)F (stereo unspecified)	0.1
Cc1nn(C)c(C)c1NC(=O)Nc1cccc(C(F)(F)F)c1	i
O=[N+]([O-])c1cc(C(F)(F)F)ccc1Sc1ccc2ccccc2n1	i

Following part:
SMILES	H5N1 CPE
CC(=O)Nc1ccccc1-c1nnc(SCc2ccccc2Cl)[nH]c1=O	0.3
O=c1c2c(nc3n1CCCCC3)-c1ccccc1CC21CCCC1	4.2
CC1CCc2c(nc3nc[nH]n3c2=O)C1 (stereo unspecified)	0.5
CC(C)(C)c1ccc(C(=O)/C=C2\NC(=O)CS2)cc1	1.9
CS(=O)(=O)N(CC(=O)Nc1ccc2c(c1)OCCO2)c1ccc2c(c1)OCO2	i
CCCCOc1ncnc2c1[nH]c1ccc(OC)cc12	i
O=C(Nc1cc(Cl)ccc1Cl)C1CC(=O)N(c2ccc(Br)cc2)C1 (stereo unspecified)	0.8
O=S(=O)(Nc1ccc(N2CCOCC2)cc1)c1cccs1	0.3
N#CC(c1ccc(Cl)cc1)c1ncc(C(F)(F)F)cc1Cl (stereo unspecified)	0.5
CCN1N=C(c2ccccc2)Cn2c1nc1ccccc12	2.8
N#CCSc1nnc(Cc2ccc3c(c2)OCO3)o1	0.3
COc1ccc(-c2oc3ncn4nc(COc5ccccc5)nc4c3c2-c2ccc(OC)cc2)cc1	i
Cc1nc(SCC(=O)NCCc2ccccc2)nc(C)c1C	i
O=C(Nc1ccccc1-c1nnc(SCc2ccc(Cl)cc2)o1)c1ccccc1	0.1
CC(C)OC(=O)Cn1c(=O)oc2ccccc21	0.4
Cn1c(=O)oc2cc(S(=O)(=O)Nc3cccc(F)c3)ccc21	i
CN1C(=S)SC(C)(C)C1(C)NO (stereo unspecified)	i
Cc1cc(C)n2nc(C(=O)OCCOc3ccc(F)cc3)nc2n1	i
